Mtb H37Rv – M. tuberculosis H37Rv growth inhibitors, H37Rv strain (AID 1626). 220,000 compounds, 0.95% hits. one-dose inhibition, % at 10 µM; IC50 in µM for titrated hits. M. tuberculosis H37Rv growth inhibition; higher % means a stronger effect;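 active = confirmed in a dose series; inconclusive = inhibition above 80% but not taken into the dose series; inactive = below 80% or under 30% at every dose of the series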;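 note: bacteria incubated seven days before Alamar blue readout; 0% = bacteria only wells and 100% = bacteria with antibiotic wells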
YopH inh – blocks Yersinia enterocolitica YopH tyrosine phosphatase. inhibition, %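 (about 10 µM by stock and volumes)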. AID 898. fluorescence Ex485/Em525. 140,000 compounds, 0.16% hits;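 active = inhibition of 50% or more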;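 note: controls were vehicle for no effect and minimum signal wells for full effect; inactives centre near -20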
Mtb bLac sens – beta-lactam sensitization of Mtb H37Rv. M. tuberculosis H37Rv growth with meropenem, percent inhibition; hits of this screen are not shown here. AID 434955. 330,000 compounds, 0.27% hits. inhibition, % at 25 µM;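 active = about 74% or more and at least 40 points above the plate without the antibiotic, then above 30% in a dose series; inconclusive = first-round hits that could not be retested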;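 note: growth measured after seven days incubation then overnight dye step; 0% = bacteria only wells and 100% = bacteria with antibiotic; twin plates without the antibiotic show which effects depend on it; some results filed as inactive read as strong as hits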
Arbovirus inh – antivirals against arbovirus infection; arbovirus infection cell-based antiviral screen; inhibition, % at 10 µM; 200,000 compounds, 0.37% hits;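 active = inhibition from about 30%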;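 note: bluetongue infection of BSR cells; cell survival read as ATP light after 72 h; 0% = infected wells without compound and 100% = uninfected wells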
RecA intein inh – Mtb RecA intein splicing inhibition; cell-free RecA intein splicing, fluorescence; inhibition, %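 (about 9 µM by stock and volumes)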; P9WHJ3; 290,000 compounds, 0.75% hits; in the data active = inhibition above about 30%; inconclusive = no clear call, values can overlap the other calls;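 note: 0% = vehicle wells and 100% = reference inhibitor control wells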
Target sequence (P9WHJ3 whole entry, looked up): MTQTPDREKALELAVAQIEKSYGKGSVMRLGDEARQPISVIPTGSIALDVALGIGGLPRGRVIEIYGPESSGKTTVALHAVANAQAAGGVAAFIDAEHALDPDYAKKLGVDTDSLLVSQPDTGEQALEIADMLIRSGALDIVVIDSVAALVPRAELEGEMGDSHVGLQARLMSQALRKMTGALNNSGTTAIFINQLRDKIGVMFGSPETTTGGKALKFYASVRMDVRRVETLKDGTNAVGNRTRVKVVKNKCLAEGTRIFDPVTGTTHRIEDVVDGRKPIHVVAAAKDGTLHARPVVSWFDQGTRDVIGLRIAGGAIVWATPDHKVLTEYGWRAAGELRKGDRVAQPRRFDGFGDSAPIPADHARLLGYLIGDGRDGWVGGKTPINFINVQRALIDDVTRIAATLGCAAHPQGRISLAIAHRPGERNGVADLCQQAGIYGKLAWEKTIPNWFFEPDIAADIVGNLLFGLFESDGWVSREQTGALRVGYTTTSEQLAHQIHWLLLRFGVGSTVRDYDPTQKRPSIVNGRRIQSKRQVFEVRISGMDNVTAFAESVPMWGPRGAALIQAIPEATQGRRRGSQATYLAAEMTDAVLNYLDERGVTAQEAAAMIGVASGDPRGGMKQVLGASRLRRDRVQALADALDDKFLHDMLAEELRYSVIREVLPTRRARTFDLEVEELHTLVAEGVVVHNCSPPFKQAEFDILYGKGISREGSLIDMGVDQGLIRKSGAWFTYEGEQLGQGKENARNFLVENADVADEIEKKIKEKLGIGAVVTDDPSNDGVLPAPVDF
Arbovirus inh repeat – further read-out of Arbovirus inh, marked with its call; inhibition, %; measured here: 10K subset replicate screen; many hits read low in the repeat;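 first of two repeat runs on a subset; 0% = infected and 100% = uninfected wells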
* marks the source's active call; other numbers are inactive results; ? = inconclusive; / = not tested or not shown. Only part of the results is shown, so the mix of outcomes need not match the whole.

SMILES	Mtb H37Rv	YopH inh	Mtb bLac sens	Arbovirus inh	RecA intein inh	others
CCn1cc(C(=O)NCc2cccs2)c(=O)c2ccc(C)nc21	6%	-47	9	-4	-0.3
CCCCSCc1ccc(C(=O)O)o1	-4%	-29	-13	1	/
O=C(CSc1nc2ccccc2s1)N1c2ccccc2Sc2ccccc21	1%	-13	0	-3	5.9
CS/C(Nc1cc(Cl)ccc1Cl)=C(/C#N)C(=O)c1ccco1	64%	/	100	/	65*
O=C(Cc1ccccc1)NNC1CC(=O)N(c2ccc(Br)cc2)C1=O (centres undefined)	-5%	-20	0	-1	-0.8
CC(=O)NC(=O)COC(=O)c1ccc2ncsc2c1	7%	/	2	4	-3.7
COc1ccc(C2=Nn3c(nnc3-c3ccccc3OC)SC2)cc1OC	3%	-6	3	-5	-0.1
COc1ccc(-c2cn3cccnc3n2)cc1NC(=O)CC(C)C	0%	-24	-1	0	-1.3
Cc1c(Cl)cccc1NC(=O)c1cccc(OC(F)F)c1	5%	-29	65	-1	2.6
COc1cccc2cc(C(=O)C3=C(O)C(=O)N(c4cc(C)on4)C3c3cccs3)oc12 (centres undefined)	/	/	-4	/	-1.7
O=C(N/N=C/c1ccccc1)NC1CCCCC1	5%	-33	3	-4	-2.6
COc1ccc(CN2CCN(S(=O)(=O)c3ccc(NC(C)=O)cc3)CC2)cc1	-8%	/	-13	/	4.9
O=C1C2C(c3ccccc3)C=CC(c3ccccc3)C2C(=O)N1C1CCCCC1 (centres undefined)	-2%	-5	-3	-4	1.8
Cc1ccccc1C(=O)Nc1ccc(N2CCOCC2)nc1	-7%	-31	-8	-7	-0.6
CC1CN(C(=O)c2ccc(Oc3ccccc3)cc2)CC(C)O1 (centres undefined)	-2%	/	-2	10	-3.1
FC(F)(F)c1ccc(NC2=NCCCS2)cc1	/	/	18	/	-0.6
Cc1cc(N)n(Cc2cccs2)n1	-3%	/	-4	-6	4.6
CCOC(=O)N1CCN(C(=O)Nc2ccc(Cl)cc2)CC1	1%	-17	5	5	-1.5
COC(=O)/C=C1\S/C(=N/N=C/c2ccccc2)NC1=O	7%	-27	94	5	-6.1
O=C(CN1CCN(S(=O)(=O)c2ccc(Cl)s2)CC1)NCc1ccc(Cl)cc1	/	-2	-1	-16	6.9
CCN(Cc1ccncc1)C(=O)c1ccccc1NS(=O)(=O)c1ccc(Br)cc1	-8%	/	-1	/	0.2
CCNC(=O)CN1C(=O)NC2(CCCCCC2)C1=O	-9%	-14	-8	2	-1.5
CC(C)OC(=O)C1=C(N)N2C(=O)CSC2=C(C(=O)OC(C)C)C1	-1%	-64	16	3	1.0
CC(C)CN(C(=O)COc1ccc(C(C)(C)C)cc1)C1CCS(=O)(=O)C1 (centres undefined)	/	/	-14	/	2.7
COc1cc(NC(=O)c2ccccc2C)c(OC)cc1NC(=O)CN1CCOCC1	-9%	/	27	-8	-3.5
Cc1ccc(C(=O)NNS(=O)(=O)c2ccc(F)cc2)cc1	/	/	2	/	0.1
Cc1cccc(N2C(=O)CN(Cc3sccc3C)C2=S)c1	3%	-27	7	-2	3.4
CCC(CC)C(=O)Nc1ccc(S(=O)(=O)Nc2nccs2)cc1	0%	/	-5	19	1.2
O=C(CCN1CCOCC1)NNC(=S)NC(=O)c1ccccc1	5%	/	3	-2	-3.6
NC(=O)Nc1ccc(Cl)cc1	1%	/	-3	/	-0.2
Cc1ccc2nc(-c3cccc(Br)c3)cc(C(=O)NC3CC3)c2c1	/	/	-2	/	-1.2
O=C(Oc1ccccc1)c1cccc(COC(=O)c2cnccn2)c1	?	-14	95	3	-0.3
COCCn1c(SCC(=O)Nc2ccccc2OC)nc2c(oc3ccccc32)c1=O	4%	/	0	-2	0.2
CCCCCc1cc(=O)[nH]c(=S)[nH]1	7%	/	-2	/	1.2
N#Cc1c(NC(=O)c2cccnc2)sc2c1CCC2	-11%	-5	-6	-18	-0.3
CCOc1ncccc1C(=O)OCc1cn2cc(Cl)ccc2n1	-9%	-5	1	1	2.3
O=c1c2c(ncn2C2CCCC2)n(Cc2ccccc2)c(=O)n1CCOc1ccccc1	5%	-28	16	4	10
O=C(CSc1nnc2ccccn12)N1CCc2ccccc21	-11%	/	-19	10	2.3
Cc1cccc2cc(CN(Cc3ccccc3)C(=O)N(C)C)c(=O)[nH]c12	-8%	-30	-3	4	/
CCOC(=O)C1CCN(c2cc3c(cc2NC(=O)c2ccc(OC)c(OC)c2)n(C)c(=O)n3C)CC1	/	/	3	/	-1.9

Filtered by structure, those above containing a thiophene ring, fused or not.
SMILES	Mtb H37Rv	YopH inh	Mtb bLac sens	Arbovirus inh	RecA intein inh	others
CCn1cc(C(=O)NCc2cccs2)c(=O)c2ccc(C)nc21	6%	-47	9	-4	-0.3
COc1cccc2cc(C(=O)C3=C(O)C(=O)N(c4cc(C)on4)C3c3cccs3)oc12 (centres undefined)	/	/	-4	/	-1.7
Cc1cc(N)n(Cc2cccs2)n1	-3%	/	-4	-6	4.6
O=C(CN1CCN(S(=O)(=O)c2ccc(Cl)s2)CC1)NCc1ccc(Cl)cc1	/	-2	-1	-16	6.9
Cc1cccc(N2C(=O)CN(Cc3sccc3C)C2=S)c1	3%	-27	7	-2	3.4
N#Cc1c(NC(=O)c2cccnc2)sc2c1CCC2	-11%	-5	-6	-18	-0.3

Next section:
SMILES	Mtb H37Rv	YopH inh	Mtb bLac sens	Arbovirus inh	RecA intein inh	others
COc1cc(N2CCCC2)c(OC)cc1/C=C1/NC(=S)NC1=O	1%	-28	1	-2	-6.7
O=C(c1ccc(Cl)cc1)c1coc2ccc(O)cc12	-6%	-15	14	-14	1.3
CCC1CCCCN1CCCNC(=O)Cn1cnc2sc(C)c(S(=O)(=O)N3CC(C)CC(C)C3)c2c1=O (centres undefined)	/	/	-1	/	0.2
CC1C(=O)C(C)C(c2ccc(Br)cc2)NC1c1ccc(Br)cc1 (centres undefined)	/	/	5	/	7.3
CCOc1cc(-c2c(C#N)c(N)nc3c2CCCC3C)ccc1O (centres undefined)	-6%	-54	3	-13	6.2
Cc1ccc(CC(CC(=O)O)C(=O)NCC23CC4CC(CC(C4)C2)C3)cc1 (centres undefined)	4%	/	4	15	-0.4
CCc1cccc(CC)c1NC(=S)NCc1ccc2c(c1)OCO2	3%	-17	-10	-1	2.0
COc1ccc(Oc2cc(C(F)(F)F)nc(N(C)C)n2)cc1	0%	/	2	-9	-0.8
COCCn1c(SCC(=O)Nc2cc(C)cc(C)c2)nc2ccccc2c1=O	/	/	3	/	0.8
O=C(CCCSc1nnnn1-c1ccccc1)c1ccc(F)cc1	14%	-26	/	6	/

Quoted at random: 3 entries already listed, in no set order.
SMILES	Mtb H37Rv	YopH inh	Mtb bLac sens	Arbovirus inh	RecA intein inh	others
CC(C)CN(C(=O)COc1ccc(C(C)(C)C)cc1)C1CCS(=O)(=O)C1 (centres undefined)	/	/	-14	/	2.7
CCCCSCc1ccc(C(=O)O)o1	-4%	-29	-13	1	/
CCN(Cc1ccncc1)C(=O)c1ccccc1NS(=O)(=O)c1ccc(Br)cc1	-8%	/	-1	/	0.2

Additional compounds follow.
SMILES	Mtb H37Rv	YopH inh	Mtb bLac sens	Arbovirus inh	RecA intein inh	others
COc1ccccc1CN1CCNC(=O)C1CC(=O)NCCOc1cccnc1 (centres undefined)	6%	/	-1	3	0.8
COCc1cc(=O)[nH]c(-c2ccccc2)n1	-1%	/	1	3	-2.8
COc1ccccc1-n1cnnc1SCC(=O)NC1CCS(=O)(=O)C1 (centres undefined)	-3%	/	-1	2	-3.1
c1ccc(-c2nc(N3CCCCC3)nc3ccccc23)cc1	3%	-17	76	-3	-1.6
Cc1cc(C)n2nc(C(=O)Nc3ccc(S(=O)(=O)N4CCCC4)cc3)nc2n1	-13%	/	-10	/	0.2
COCCCn1c(SCC(N)=O)nnc1-c1ccccc1	0%	-9	2	3	-0.9
Cc1c(NC(=O)CSc2nccn2C)c(=O)n(-c2ccccc2)n1C	-9%	11	-4	0	0.1
COc1cccc(/C=N\NC(=O)C2C(=O)NCC2c2ccccc2)c1O (centres undefined)	-2%	-44	3	-12	-0.5
Cn1c(=O)c2c(nc(N3CCOCC3)n2CCSc2ncccn2)n(C)c1=O	-3%	-54	0	-4	1.2
Cc1ccccc1C(=O)NC(=S)Nc1ccc(S(=O)(=O)N2CCN(C)CC2)cc1	4%	-19	-1	-2	0.5
Cc1ccc(C(=O)N/C(=C\c2cn(S(=O)(=O)N(C)C)c3ccccc23)C(=O)N2CCCC2)cc1	/	/	2	/	-0.6
COc1ccc(S(=O)(=O)N2CCCCCC2)cc1C(=O)N(C)CCOc1ccccc1	/	/	-16	/	-0.8
O=S(=O)(Cc1ccccc1)N1CCN(Cc2ccc(Br)cc2)CC1	/	/	-5	/	1.0
O=C1c2oc3ccccc3c(=O)c2C(c2cccc(O)c2)N1c1ccccn1 (centres undefined)	-3%	-45	3	2	-0.2	Arbovirus inh repeat=-1
COc1ccc(C2(C)NC(=O)N(CC(=O)NCc3ccccc3F)C2=O)cc1 (centres undefined)	/	/	-8	/	-0.4
COc1ccccc1/C=C1\SC(=S)N(CCC(=O)NC2=NCCS2)C1=O	11%	-10	89	0	1.1
COc1ccc(C(=O)NCC(C)C)c(OC)c1	-1%	12	-1	1	1.7
CCCC(=O)N=C1SC2CS(=O)(=O)CC2N1c1ccc(-c2nc3ccc(C)cc3s2)cc1 (centres undefined)	-2%	2	3	-7	-4.5
O=[N+]([O-])c1cccc(/C=N/NC2=NS(=O)(=O)c3ccccc32)c1	-3%	/	3	-9	-2.5
COc1cc(CC(=O)Nc2ccc(S(=O)(=O)NC3=NCCCCC3)cc2)cc(OC)c1OC	-1%	/	-5	5	-1.0
CCN(CC)c1ccc(NC(=O)c2ccc3c(c2)OCO3)cc1	/	/	-2	/	-2.1
NC(=O)c1nsc(C(=O)N(c2cccc(F)c2)C(C(=O)NC2CCCC2)c2ccc(O)cc2)c1N (centres undefined)	/	/	-5	/	-0.8
O=C1CC(c2ccc(F)cc2)Sc2nc(C34CC5CC(CC(C5)C3)C4)nn21 (centres undefined)	6%	-4	-2	-11	-8.1
CC(=O)N1N=C(c2ccc(C)c([N+](=O)[O-])c2)OC1(C)C	-4%	/	-5	/	-0.9
COc1ccc(Cl)cc1NC(=S)NCc1cccs1	4%	/	18	9	-0.7
COc1ccc(C2CC(=O)C(C=NCCN3CCN(C(=S)Nc4ccccc4)CC3)=C(O)C2)cc1OC (centres undefined)	3%	/	7	7	-3.8
CCCCCOc1ccc(/C=N/NC(=O)c2nnn(-c3nonc3N)c2CN2CCCCCC2)cc1	/	/	-7	/	0.2
O=C(NC1CCCC1)C(c1ccco1)N(Cc1ccccc1)C(=O)c1csnn1 (centres undefined)	-6%	16	2	-1	0.3
CC(C)Oc1ccc(/C(O)=C2/C(=O)C(=O)N(CCN(C)C)C2c2cccs2)cc1 (centres undefined)	-11%	-31	-1	-1	7.1
O=C(CCNS(=O)(=O)c1ccc(Br)s1)NCc1ccccc1Cl	16%	/	-11	-6	0.7
Cc1ccc(-c2ccc(CCC(=O)O)n2CC2CCCO2)cc1 (centres undefined)	4%	-100	1	5	-15
COc1ccc(CC(=O)NC2=NCCS2)cc1	2%	-21	-2	3	-1.0
COc1ccc(C[C@H]2CN3C(=NC[C@H]3Cc3ccccc3)N2CCNC(=O)c2ccc(C)c(Br)c2)cc1	?	/	100	/	11
COc1ccccc1-c1noc(CCCC(=O)NC2CCCC2)n1	/	/	-8	/	-0.7
COc1cccc2cc(CC(=O)c3ccccc3)c(=O)oc12	/	/	-2	/	0.0
Cc1ccc(CNC(=O)C2CCCN(C(=O)N(C)C)C2)cc1 (centres undefined)	-3%	-18	-2	-6	0.5
CCCCN1C(=O)C(=O)N(CC(=O)NC2CCCc3ccccc32)C1=O (centres undefined)	1%	/	-2	6	1.4
Fc1ccc(C2Nc3cccc4cccc(c34)N2)cc1	/	/	78	/	0.0
Oc1ccc(CN2CCCc3ccccc32)c2cccnc12	-1%	-53	73	-12	-3.1
COc1ccc(CNCC(O)(c2ccc(F)cc2)c2ccc(F)cc2)cc1OC	/	/	-3	/	-1.6
CS(=O)(=O)N1CCCC(C(=O)NCCCN2CCC(Cc3ccccc3)CC2)C1 (centres undefined)	-10%	-13	-3	5	0.3
CCc1nn2c(=O)cc(CSCC(=O)Nc3ccccc3Cl)nc2s1	/	/	4	/	-1.6
CCOc1ccc(Nc2c3c(nc4ncnn24)CC(C)CC3)cc1 (centres undefined)	-1%	-6	-2	2	2.6
Cc1ccc(-n2c(SCC(=O)NCCN3C(=O)CSC3=O)nnc2-c2cccc(C)c2)cc1	4%	-25	-4	-12	0.5
O=C(Cn1c(C(F)(F)F)nc2ccccc21)c1ccc(Br)cc1	4%	-21	7	1	-1.0
CCOc1cc(-c2nc(C)c(C(C)=O)n2O)ccc1OCC(=O)Nc1ccccc1	0%	/	44	25	-2.1
